# SARS PLP yeast – blocks SARS-CoV papain-like protease in a yeast assay; S. cerevisiae expressing SARS-CoV PLpro, growth rescue; control for the full effect not named in the record; Potency, µM (series often up to 32.9 µM), inactives show top-dose activity, positive = growth rescue; 0.19% of 330,000 active; AID 485353; also: 0% is about no effect; nearly all actives have a fitted effect of over 55% in size; growth read by luminescence after 48 h
# NS1 function inh – inhibitors of influenza NS1 protein function. S. cerevisiae slowed by influenza A NS1, growth recovery by OD600. Potency, µM (top dose mostly 46.1 µM), without a hit: at the highest dose activity, positive = more growth. 0.4% of 270,000 active; also: actives are rising curves; nearly all actives have a fitted effect of over 50% in size
#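 S. cerevisiae expressing influenza A NS1, grown in glucose, washed, then diluted 1:100 into pH 6.0 -URA galactose medium with 23 nl compound. Growth recovery read as OD600; NS1-free strain serves as control.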
# MARV entry inh – Marburg virus entry inhibition | Marburg virus pseudotyped entry inhibition, cell reporter; control for the full effect not named in the record; about a third of the inactives were read at about 46 µM | Potency, µM (series often up to 37.8 µM), for inactives: at the highest dose activity change, negative = inhibition, most hits filed as inhibitors | 1.8% of 300,000 active | AID 540276; active = well fitted inhibition curve with a large enough effect; inconclusive = small, poorly fitted or top-dose-only effect, or effect the other way; inactive = flat fitted curve, though single readings scatter; tested in HEK293 cells; about a fifth of its hits are not listed in these tables; also: % is scaled to controls: 0 for no effect and ±100 for the full control effect; luciferase read-out
# Cruzain inh noDet – blocks cruzain activity in detergent-free assay. purified cruzain, Z-FR-AMC fluorescence, no detergent. Potency, µM, for the others: max response, negative = inhibition, hits mostly inhibitors. 2.3% of 200,000 active; active = well fitted curve in the direction sought with a large enough effect; inconclusive = small, poorly fitted or top-dose-only effect, or another doubt; inactive = no such curve, though single readings can be large; an effect the other way counts as inactive or inconclusive;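 also: plate controls were enzyme without inhibitor for no effect and buffer without enzyme for full effect; nearly all actives have a fitted effect of over 40% in size; top concentration of the series not given in the record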
# Target sequence (P25779 123-467 limits assumed): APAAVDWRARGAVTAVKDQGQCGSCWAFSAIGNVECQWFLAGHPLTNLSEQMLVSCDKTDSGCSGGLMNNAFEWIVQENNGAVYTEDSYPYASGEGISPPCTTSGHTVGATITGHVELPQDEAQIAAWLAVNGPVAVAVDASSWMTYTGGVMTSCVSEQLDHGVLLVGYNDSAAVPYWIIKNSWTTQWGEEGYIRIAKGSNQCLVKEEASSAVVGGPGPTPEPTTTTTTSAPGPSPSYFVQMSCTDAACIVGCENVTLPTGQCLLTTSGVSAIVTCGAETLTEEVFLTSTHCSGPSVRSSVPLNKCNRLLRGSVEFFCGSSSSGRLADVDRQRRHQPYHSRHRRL
#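 Purified cruzain at 1.5 nM, pre-incubated 15 min with compound at room temperature in 100 mM sodium acetate pH 5.5, 5 mM DTT, 0.00005% Triton X-100. Reaction started with 2 uM Z-FR-AMC; AMC fluorescence increase over 60 s gives rate.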
# Cruzain Triton – blocks cruzain activity in presence of Triton detergent; 0.43% of 200,000 active; purified cruzain, Z-FR-AMC fluorescence, 0.01% Triton; P25779; Potency, µM, for inactives: max response, negative = inhibition, most hits filed as inhibitors; active = well fitted curve in the direction sought with a large enough effect; inconclusive = small, poorly fitted or top-dose-only effect, or another doubt; inactive = no such curve, though single readings can be large; an effect the other way counts as inactive or inconclusive;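 also: plate controls were neutral wells for no effect and buffer without enzyme for full effect; nearly all actives have a fitted effect of over 40% in size; top concentration of the series not given in the record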
#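 Cruzain (1.5 nM) preincubated 15 min at RT with compound in 100 mM sodium acetate pH 5.5, 5 mM DTT, 0.01% Triton X-100. Reaction started with 2 uM Z-FR-AMC; AMC fluorescence (ex 360/em 450 nm) change over 60 s gave rate.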
# Lassa entry inh – Lassa virus entry inhibition. Lassa virus pseudotype entry inhibition, cell reporter; control for the full effect not named in the record. Potency, µM (highest dose often 37.9 µM), for inactives: at the top dose activity change, negative = inhibition, usual class: inhibitors. 1.2% of 300,000 active. AID 540256; active means well fitted inhibition curve with a large enough effect; inconclusive means small, poorly fitted or top-dose-only effect, or effect the other way; inactive means flat fitted curve, though single readings scatter; tested in HEK293 cells; also: % is scaled to controls: 0 for no effect and ±100 for the full control effect; nearly all actives have a fitted effect of over 50% in size; luciferase read-out
# RE007 growth inh – less growth of the S. pombe RE007 Vpr strain; 0.21% of 360,000 active; S. pombe RE007 Vpr strain, BacTiter-Glo ATP luminescence, 24 h; control for the full effect not named in the record; Potency, µM (doses to about 92.2 µM), inactives show at the highest dose activity change, negative = less growth; active = well fitted falling curve with a large enough effect; inconclusive = small, poorly fitted or top-dose-only effect; inactive = no such curve, though single readings can be large or run the other way;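 also: % is scaled to controls: 0 for no effect and ±100 for the full control effect; nearly all actives have a fitted effect of over 50% in size; the assay follows cell death caused by Vpr and the record does not say whether a fall means rescue or toxicity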
#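 Fission yeast strain RE007, carrying one chromosomally integrated HIV-1 vpr copy, was seeded at OD 0.01 in PMG+AL medium with 23 nL pinned compound. After 24 h at 30 °C and 99% humidity, viability was read by BacTiter-Glo luminescence.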
# 2A StopGo – FMDV 2A StopGo reporter, luciferase signal; human cells with a luciferase reporter of 2A StopGo recoding; control for the full effect not named in the record; 1.2% of 410,000 active; Potency, µM (doses to about 57.9 µM), inactives show at the highest dose signal change, negative = less light; active = well fitted falling curve with a large enough effect; inconclusive = small, poorly fitted or top-dose-only effect; inactive = no such curve, though single readings can be large or run the other way; tested in HEK293T cells; also: % is scaled to controls: 0 for no effect and ±100 for the full control effect; nearly all actives have a fitted effect of over 45% in size; luciferase light after 4 h
# The depositor's hits bear a star; ? = inconclusive; / = no result given; & = joins results of further samples; [ ] = dose if it differs, or a comment. Unless noted, calls follow the shape of the dose curve; as a rule, active means well fitted rising curve with a large enough effect; inconclusive means small, poorly fitted or top-dose-only effect; inactive means no such curve, though single readings can be large or run the other way. Potency is read from the fitted curve at half-maximal effect.
No.	canonical_smiles	SARS PLP yeast	NS1 function inh	MARV entry inh	Cruzain inh noDet	Cruzain Triton	Lassa entry inh	RE007 growth inh	2A StopGo
1	CCOc1ccc(C(=O)NCC(=O)NCC(c2ccccc2OC)N2CCCC2)cc1 (stereo not given)	-2%	/	9%	/	/	6%	-5%	-12%
2	O=C(NNC(=S)Nc1ccccc1C(F)(F)F)C1CC1	-2%	4%	-7%[46.1 µM]	/	/	13%[46.1 µM]	-6%	23%
3	Cc1nn2c(=O)cc(COC(=O)c3ccc(F)cc3)nc2s1	/	/	/	-5%	-1.3%	-5%[46.1 µM]	/	34%[activator]
4	CC(NC(=O)C1CCCC1)c1ccc(Br)cc1 (stereo not given)	-2%	4%	/	/	/	/	13%	-12%
5	NC(=O)CSc1nnc(C2CC2)n1-c1ccccc1	-6%	3%	25%	-5%	4.6%	5%	28%	-3%
6	CC(C)(C)C1CCCCC1NC(=O)c1ccncc1 (stereo not given)	0%	-5%	-5%[46.1 µM]	/	/	6%[46.1 µM]	25%	12%
7	COc1ccc2[nH]c(=O)c(CN(C(=O)C(C)C)c3ccccc3OC)cc2c1	4%	8%	?	/	/	-4%	-26%	-19%
8	CN(C)S(=O)(=O)N1CCN(C(=O)N2CCCCC2)CC1	6%	14%	-2%	-1%	5.0%	12%	-6%	/
9	Cc1cc(NC(=O)CCC(=O)N(c2ccccc2)C(C(=O)NC(C)(C)C)c2ccccc2Cl)no1 (stereo not given)	1%	27%	?	/	/	5%	-17%	9%
10	O=C(O)CC(Cc1ccccc1)C(=O)NCC12CC3CC(CC(C3)C1)C2 (stereo not given)	6%	/	-16%[46.1 µM]	/	/	-8%[46.1 µM]	7%	2%
11	Cc1ccc(CNc2nc(N)c([N+](=O)[O-])c(NCc3ccccc3)n2)cc1	-10%	3%	-16%	?	-1.6%	-4%	-11%	4%
12	O=C(Cc1ccccc1)N[C@H](c1ccccc1)P(=O)(O)CO	-2%	-7%	?	-6%	5.6%	-1%	-2%	-18%
13	CC(C)(C)c1cc(C(=O)N/N=C/c2ccccn2)n[nH]1	0%	-2%	/	/	/	/	4%	59%[activator]
14	Cc1ccc(S(=O)(=O)N(C)C/N=C(\N)N[N+](=O)[O-])cc1	0%	/	15%[46.1 µM]	/	/	-2%	-6%	38%[activator]
15	CCOC(=O)C1Cc2c([nH]c3ccccc23)CN1 (stereo not given)	2%	-4%	-1%	0%	1.5%	16%	5%	-13%
16	Cc1ccc(Nc2nc(-c3ccncc3)nc3ccccc23)cc1	1%	4%	2.2µM*	/	/	1%	-9%	-25%
17	Cc1cc(C(=O)N/N=C2\CCCC(=O)C2)c2ccccc2n1	5%	14%	-26%	4%	0.0%	?	-5%	-24%
18	CCC(=O)N1c2ccccc2CC1C(=O)N1CCN(c2ccccc2)CC1 (stereo not given)	/	/	/	7%	0.5%	30%[46.1 µM]	/	-5%
19	CCOC(=O)Cn1cnc2sc3c(c2c1=O)CCC3	-3%	-9%	-9%[46.1 µM]	-1%	-1.6%	-7%	5%	1%
20	CC(Sc1nncs1)C(=O)Nc1ccc2c(c1)OCO2 (stereo not given)	-2%	12%	4%[46.1 µM]	/	/	0%	-11%	28%
21	COc1ccccc1C(=O)Nc1ccnn1C1CCN(Cc2ccc3nonc3c2)CC1	-3%	2%	/	/	/	/	10%	0%
22	O=C(Nc1ccccc1)N1CCCN(c2c(Cl)cncc2Cl)CC1	-2%	-4%	-21%	/	/	-3%	6%	-22%
23	O=C(c1c(F)cccc1F)N1CCN(c2ccccc2F)CC1	10%	-19%	?	4%	-0.7%	2%	-10%	0%
24	O=C(O)COc1ccccc1/C=N/NC(=O)c1ccc(F)cc1	-6%	/	?	/	/	5%[46.1 µM]	-4%	-6%
25	Cc1nn(CC(=O)NC2CC2)c(=O)c2cc3ccccc3n12	/	/	1%[46.1 µM]	-3%	-1.0%	/	/	-3%
26	O=C(N[C@@H](Cc1ccccc1)C(=O)N1CCN(S(=O)(=O)c2ccc(F)cc2)CC1)c1ccco1	0%	/	-3%	/	/	-3%	-12%	-6%
27	OCCCNC(=S)Nc1ccc2nc(-c3ccccn3)c(-c3ccccn3)nc2c1	4%	3%	12%	-13%	-3.9%	8%	2%	/
28	[O-][N+]12CCN(CC1)c1ccccc12	15%	2%	5%	8%	0.2%	2%	-1%	/
29	Cc1ccc(C(=O)Nc2c(C(=O)Nc3ccc(C)c(C)c3)sc3nc(C)cc(C)c23)cc1	/	/	?	-1%	-2.0%	19%[46.1 µM]	/	56%[activator]
30	Cn1cnc2c(cnn2C)c1=O	/	/	?	/	/	3%[46.1 µM]	21%	2%
31	CCN(c1ccccc1)S(=O)(=O)c1ccc(OC)c(NC(=O)c2ccc(=O)[nH]c2)c1	-4%	/	-1%	/	/	?	5%	-21%
32	Cc1ccc(S(=O)(=O)C(CNC(=O)Cc2ccc(Cl)cc2)c2cccs2)cc1 (stereo not given)	/	/	/	3%	-3.2%	?	/	-7%
33	O=c1cc(-c2ccc(O)c(O)c2)oc2cc(O)cc(O)c12	2%	-3%	/	-19%&-21%	-13%&-14%	/	-9%	19%
34	Cc1ccc2c3c([nH]c2c1C)-c1nonc1CC3	-24%	3%	4%	-13%	-7.7%	9%	-15%	8%
35	O=C(NCCCN1CCCC1)C1CCC(=O)N1C1CCCCC1 (stereo not given)	6%	-2%	2%	-5%	2.6%	-11%	-16%	/
36	Cc1ccc(CCNC(=O)CNC(=S)N(Cc2ccccc2)Cc2cccnc2)cc1	1%	/	?	/	/	?	23%	-5%
37	NC(=O)NC(CC(=O)NCCc1ccc(S(N)(=O)=O)cc1)c1ccccc1Cl (stereo not given)	0%	8%	/	/	/	/	-7%	-12%
38	COc1ccc(OC)c(S(=O)(=O)Nc2cc3c4c(c2)CCC(=O)N4CCC3)c1	-2%	/	-6%	/	/	?	9%	82%[activator]
39	CCOC(=O)C(C)Oc1cccc2c(=O)n(CC(=O)NCCc3ccccc3)ccc12 (stereo not given)	0%	4%	/	/	/	/	-2%	-17%
40	COc1ccccc1N(Cc1cc(=O)[nH]c2ccccc12)C(=O)C(C)C	5%	6%	/	/	/	/	-1%	-16%
41	Cc1nc(C)n(C(C)CNS(=O)(=O)c2ccc(C)c(C)c2)n1 (stereo not given)	-1%	-12%	1%[46.1 µM]	/	/	?	7%	15%
42	Cc1cccc(N(Cc2ccccc2)C(=O)c2ccc(F)c(S(=O)(=O)N3CCOCC3)c2)c1	-6%	/	11µM*	/	/	-27%	-17%	-5%
43	CCCS(=O)(=O)N1CCCC(C(=O)NCCCN(C)c2ccccc2)C1 (stereo not given)	2%	-1%	-19%	1%	-0.2%	12%	-2%	-14%
44	O=C(CN1C(=O)CCSc2ccccc21)NC1CCCCC1	1%	1%	/	/	/	/	34%	-3%
45	O=C(CSc1nnc(CNC(=O)c2cccs2)o1)Nc1ccccc1	-5%	/	2%[46.1 µM]	/	/	?	1%	0%
46	Cc1ccc(NC(=O)c2cc3c(=O)n(Cc4ccco4)ccc3nc2C)cc1C	/	/	/	?	-6.7%	-15%[46.1 µM]	/	-19%
47	COc1ccc(-c2csc(Nc3ccc(S(=O)(=O)Nc4cc(C)on4)cc3)n2)cc1C	0%	15%	/	/	/	/	11%	13%
48	O=C(N/N=C/C1=Cc2ccccc2OC1)c1ccncc1	0%	0%	11%[46.1 µM]	/	/	7%	0%	36%[activator]
49	C[N+]1(CC(=O)OCCCc2ccccc2)CCCCC1	1%	0%	14%[46.1 µM]	/	/	3%[46.1 µM]	-12%	-3%
50	O=c1c(-c2nc3ccccc3o2)c2oc3ccccc3n2c2ccccc12	-1%	-39%	0%	-7%	?	/	/	/
51	CCN(CC)CCCN1C(=O)C(O)=C(C(=O)c2ccc(C)o2)C1c1cccs1 (stereo not given)	7%	2%	2%	2%	-2.7%	/	/	/
52	Cc1ccc(NC(=O)CNC(=O)c2sc3ccccc3c2Cl)nc1	-1%	/	5%	/	/	7%	-18%	35%[activator]

# Of the compounds above, 7 have an aryl methoxy group:
No.	canonical_smiles	SARS PLP yeast	NS1 function inh	MARV entry inh	Cruzain inh noDet	Cruzain Triton	Lassa entry inh	RE007 growth inh	2A StopGo
1	CCOc1ccc(C(=O)NCC(=O)NCC(c2ccccc2OC)N2CCCC2)cc1 (stereo not given)	-2%	/	9%	/	/	6%	-5%	-12%
7	COc1ccc2[nH]c(=O)c(CN(C(=O)C(C)C)c3ccccc3OC)cc2c1	4%	8%	?	/	/	-4%	-26%	-19%
21	COc1ccccc1C(=O)Nc1ccnn1C1CCN(Cc2ccc3nonc3c2)CC1	-3%	2%	/	/	/	/	10%	0%
31	CCN(c1ccccc1)S(=O)(=O)c1ccc(OC)c(NC(=O)c2ccc(=O)[nH]c2)c1	-4%	/	-1%	/	/	?	5%	-21%
38	COc1ccc(OC)c(S(=O)(=O)Nc2cc3c4c(c2)CCC(=O)N4CCC3)c1	-2%	/	-6%	/	/	?	9%	82%[activator]
40	COc1ccccc1N(Cc1cc(=O)[nH]c2ccccc12)C(=O)C(C)C	5%	6%	/	/	/	/	-1%	-16%
47	COc1ccc(-c2csc(Nc3ccc(S(=O)(=O)Nc4cc(C)on4)cc3)n2)cc1C	0%	15%	/	/	/	/	11%	13%

# Assay outcomes deposited in PubChem by National Center for Advancing Translational Sciences (NCATS).
